# NPYLR7 ag – mosquito NPYLR7 agonism | HEK293T NPYLR7/Galpha15, GCaMP6s calcium fluorescence | activation, % at 10 µM | 270,000 compounds, 0.15% hits; in the data active means activation above about 40%;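 further: 0% = vehicle and 100% = reference agonist at the receptor; some compounds past the cut are filed as inactive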
# NPYLR7 ag max-min – second read-out of NPYLR7 ag, no call of its own (marks repeat the call); activation, %; measured here: Max-Min RFU normalised activation; some inactives read as strong as hits;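 span of the calcium signal over five minutes; 0% = vehicle and 100% = native peptide agonist; compound fluorescence can raise it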
# Active calls of the source: *; & = joins results of further samples. These rows are one share of the data; the hit share may differ from the screen's.
SMILES,NPYLR7 ag,NPYLR7 ag max-min
CCN1C(=O)NC(c2ccc(C(F)(F)F)cc2)C2=C1CN(C(C(=O)NCCc1ccccc1)C(C)C)C2=O (stereo not drawn),-1,0
Cn1ccnc1C(NC(=O)C1CCN(S(=O)(=O)c2ccccc2F)CC1)c1ccccc1 (stereo not drawn),9,12
Cc1cc(C)cc(OCC(=O)NC(C)c2cc3ccccc3o2)c1 (stereo not drawn),1,4
Cc1ccc(-c2cn3cccnc3n2)cc1NC(=O)C1CCCC1,8,10
Cc1nc(N2CCC(C(=O)N3CCNC(=O)C3c3cccc(F)c3)CC2)nc2ccc(C(C)C)cc12 (stereo not drawn),18,4
COc1ccc2oc(=O)c(C(=O)Nc3ccccc3I)cc2c1,-3,-8
CSc1ncc(CN2CCCC(CCC(=O)Nc3ccccc3F)C2)cn1 (stereo not drawn),2,3
CCC(NC(=O)C1=NNC(=O)CC1)c1ncccc1C (stereo not drawn),2,1
COc1ccccc1CN1CCC(CN(CC(C)C)C(=O)CCSC)CC1,-2,-6
O=C(Nc1ccccc1Br)N1CCSC1c1cccc(Oc2ccccc2)c1 (stereo not drawn),-2,2
COCC(C)(NC(=O)Nc1ccc(OC(C)C)cc1)c1ccccc1 (stereo not drawn),5,5
O=C1CCC(C(=O)OCC(=O)Nc2ncc(C(F)(F)F)cc2Cl)CN1 (stereo not drawn),-1,20
Cc1cnc(NC(=O)CN2C(=O)NC(C)(C)C2=O)s1,-1,5
CCN(CC)CC(=O)Nc1cccc2c1C(=O)c1ccccc1C2=O,6,9
CCOCCN1N=C(C)Cn2c1nc1c2c(=O)n(CCOCC)c(=O)n1C,4,5
Cc1cccc(-c2nnc(NC(=O)C(Cc3ccccc3)NC(=O)NC34CC5CC(CC(C5)C3)C4)s2)c1 (stereo not drawn),18,5
COc1ccc(C2C(C(=O)OC3CCCC3)=C(C)NC3=C2C(=O)CCC3)cc1 (stereo not drawn),2,2
O=C(C1CCCO1)N1CCCCCC1CC(O)c1cccs1 (stereo not drawn),3,2
CCCSc1nsc(NC(=O)CN(C)Cc2cccc(F)c2)n1,4,4
CC(=NNC(=O)OC(C)(C)C)c1ccc(C)s1,-4,-2

# Individual results from the results shown:
# CCCSc1nsc(NC(=O)CN(C)Cc2cccc(F)c2)n1 in NPYLR7 ag: 4
# O=C(C1CCCO1)N1CCCCCC1CC(O)c1cccs1 (stereo not drawn) in NPYLR7 ag max-min: 2

# Additional entries
SMILES,NPYLR7 ag,NPYLR7 ag max-min
c1ccc(-c2nc(NCCN3CCOCC3)c3ccccc3n2)cc1,14,5
COCC(=O)NC[C@H]1O[C@@H](CC(=O)NCCN(C)C)[C@H](O)[C@@H]1O,-7,-14
COC(=O)c1sc(NCCc2ccccc2C)nc1Cl,6,4
Cc1cc(NC(=O)CSc2nncn2-c2ccccc2)c([N+](=O)[O-])cc1C,2,2
CN(Cc1nc(-c2cccs2)no1)C1CCCc2ccccc21 (stereo not drawn),5,2
COCCCNc1nc2ccccc2nc1NS(=O)(=O)c1cccc(C)c1,-10,-15
COc1ccc(N=c2sc(C(C)=O)c(C)n2CCO)cc1,-7,-10
CCc1nc2ccc(C(=O)NCCNC(C)=O)cn2c1N(CC)Cc1ccc(OC)c(OC)c1,-4,6
CCN(CC)CC1CCN(c2ncc3ncnc(Nc4ccc(F)c(Cl)c4)c3n2)CC1,-9,-16
CC(=O)Nc1ccc(Nc2cc(N3CCCCCC3)c3nonc3c2[N+](=O)[O-])cc1,-1,-2
CC(C)c1cc(C2CCCN2C(=O)Cn2cc(Cl)cn2)on1 (stereo not drawn),-1,59
COC(=O)C1=C(C)N(Cc2ccccc2)C(=O)C1(NC(=O)c1cccs1)C(F)(F)F (stereo not drawn),-2,-4
CCOc1ccccc1Nc1nnc(SC(C)C(=O)NC(=O)NC)s1 (stereo not drawn),1,1
Cc1ccc(O)c(C(=O)N2CCCC(C(=O)N3CCCCC3)C2)c1 (stereo not drawn),3,1
O=C(Nc1cccc(Oc2ccccc2)c1)C1CCCCC1C(=O)N1CCc2c([nH]c3ccccc23)C1 (stereo not drawn),-10,-22
Cc1ccc(Cl)c(Oc2cc(N3CCN(C(=O)c4cccs4)C(C)C3)ncn2)c1 (stereo not drawn),17,18
O=S(=O)(c1cccc(Cl)c1Cl)N1CCN(c2nc3ccccc3nc2-c2ccccc2)CC1,12,9
CNC(=O)c1ccsc1NC(=O)c1ccno1,-2,-13
Cc1ccc(C2NC(=O)N(C)C3=C2C(=O)N(CCN2CCOCC2)C3)cc1 (stereo not drawn),16,25
CC(SCc1ccc(Cl)s1)C(=O)NC1CCCC1 (stereo not drawn),-6,-7
CC(NCC1CNc2ccnn2C1)c1ccc(N2CCOCC2)cc1 (stereo not drawn),3,0
O=C(CCCN1C(=O)c2cccc3cccc(c23)C1=O)Nc1ccccc1,-2,-2
O=C(CSc1nnc(SCC(=O)N2CCCCC2)s1)N1CCCCC1,-6,-9
Cc1nc(-n2nc(C3CC3)cc2NC(=O)c2cccc(F)c2)[nH]c(=O)c1C,7,6
O=C(c1ccco1)N(Cc1ccco1)Cc1nccn1Cc1ccc(F)cc1,15,17
CCCCOC(=O)NC1CCS(=O)(=O)C1 (stereo not drawn),2,1
O=C(NC1=C(C(F)(F)F)C(F)(F)C(F)(F)C1(F)F)SCC1Cc2ccccc2O1 (stereo not drawn),3,1
Cc1nc(NCCNS(=O)(=O)c2ccc(-c3ccccc3)cc2)cc(-n2ccnc2C)n1,-9,-15
CCOC(=O)c1c(NC(=O)CCl)sc(Br)c1-c1ccccc1,-4,-10
CC(CC1CCCCC1)NCCS(=O)(=O)N(C)C (stereo not drawn),-3,15
COc1ccc(CCN(C)C(=O)c2ccc(C)c(Oc3nc(Cc4ccccc4)ns3)c2)cc1OC,-4,-3
CCOc1ccc(N2C(=O)CSC2c2ccc(F)cc2)cc1 (stereo not drawn),-7,-14
CCN(CCN1C(=O)CSC1c1ccccc1F)S(=O)(=O)c1cccc2cccnc12 (stereo not drawn),14,24
CCOC(=O)C1(C)CCCN1C(=O)c1ccc(C(=O)OC)cc1 (stereo not drawn),0,-4
CC1CCCCC1NC(=O)CSCc1ccc2c(c1)OCO2 (stereo not drawn),3,13
Cn1nnc2c(N3CCN(S(=O)(=O)c4cccnc4)CC3)ncnc21,0,20
CCN(CC)S(=O)(=O)N1CCCC1c1ccc(C)cc1 (stereo not drawn),-1,-1
CCOC(=O)N1CCN(C(=O)C(C)N2C(=O)c3ccccc3C2=O)CC1 (stereo not drawn),-7,-14
CCCCc1ccc(C(=O)Nc2ccc(-n3nc(OCC(C)C)nc3-c3cccc(C(F)(F)F)c3)cc2)cc1,5,16
Cn1ccnc1N1CCN(C2CCCN(c3cccc(F)c3)C2=O)CC1 (stereo not drawn),-1,0
Cc1ccsc1C(=O)N1CCc2c(c(C(=O)N3CCC(O)CC3)nn2CCc2ccccc2)C1,14,1
O=C(N=Nc1c(O)n(CO)c2ccccc12)c1ccccc1O,1,1
Nc1nc(CSCc2ccco2)nc(N2CCCCC2)n1,1,-1
O=S(=O)(NCCO)c1cccc2cccnc12,-1,-3
Cc1cc(C)n(-c2ccc(CNC3CCCC3)c(C(F)(F)F)c2)n1,4,3
CCC(NC(=O)N1CCCC(c2nc(C)no2)C1)c1cccc(Cl)c1 (stereo not drawn),-1,1
Cc1ccc2nc3c(n2c1)C(c1ccccc1-c1ccc(C)o1)CC(=O)NC3 (stereo not drawn),6,4
CN(C)C(=O)c1nnc2n1CCN(Cc1ccc(OC(F)(F)F)cc1)C2,5,1
CC(C)(C)n1nc2c(c1NC(=O)c1ccccc1)CS(=O)C2 (stereo not drawn),11,10
COc1ccc(CC(=O)N2CCC(c3nc(-c4ccc(F)c(F)c4)no3)CC2)cc1,-6,-10

# Additional entries follow:
SMILES,NPYLR7 ag,NPYLR7 ag max-min
Cc1c(NC(=O)C2CC2C)cccc1C(=O)N1CCc2sccc2C1 (stereo not drawn),5,3
COc1cc(-c2nc3ccc(Br)cn3c2NC(C)(C)CC(C)(C)C)ccc1OC(=O)c1ccc2ccccc2c1,1,6
Cc1ccc(N2C(=O)CSC2c2ccccc2N)c(C)c1 (stereo not drawn),0,5
CCC/C=C/c1ccc2cc[nH]c(=O)c2c1,-1,0
CCOC(=O)C1=C(C)N=c2s/c(=C\c3ccccc3OC(C)=O)c(=O)n2C1c1ccc(OC(C)=O)cc1 (stereo not drawn),17,22
Cc1ccc(Cl)cc1N1CCN(C(=O)c2sc(Nc3ccc(F)cn3)nc2C)CC1,15,4
Cc1ccoc1C(=O)NCC1CCN(Cc2ccc3nonc3c2)C1 (stereo not drawn),14,14
OCC1CCc2nnc(C(F)F)n2C1 (stereo not drawn),2,-134
Cc1cccc(Cn2c(=O)c(C(=O)N3CCCC3)nn(-c3cccc(C(F)(F)F)c3)c2=O)c1,1,13
Cc1ccc(-n2cc(CN(C)Cc3nonc3C)c(-c3cccc(C)c3)n2)cc1,11&-1,8&-4
O=[N+]([O-])c1cc(C(F)(F)F)cc([N+](=O)[O-])c1NN=Cc1ccc2c(c1)OCO2,2,0
COc1cc(OC)cc(C(=O)NN=Cc2cc(C)n(-c3ccc(C(=O)O)cc3)c2C)c1,-7,-8
CCc1nccn1CCC(=O)O,-4,-5
CCC(O)(CC)CNc1nn2cc(-c3ccc(F)cc3)nc2s1,-1,71
Cn1c(O)c(N=NC(=O)c2cncc(Br)c2)c2ccccc21,1,-7
O=C1[C@H]2CCCC[C@H]2C(=O)N1CCCCN1CCN(c2nsc3ccccc23)CC1,-10,-14
Cc1cc(Oc2cc(N3CCN(C(=O)c4ccccc4C)CC3)ncn2)ccc1Cl,4,6
CNCc1nncn1C(C)C,3,1
O=C(Nc1ccc(N2CCN(C(=O)c3c(F)cccc3Cl)CC2)nc1)c1ccc(F)cc1,25,15
C=CCn1c(C)cn2c3c(=O)n(Cc4cccc(C)c4)c(=O)n(C)c3nc12,-3,-2
CCCNC(=O)c1cc(-c2ccc(Cl)cc2)n(-c2cccc(C)c2)c1C,33,32
Cc1sc(C(C)(C)NC(=O)OC(C)(C)C)nc1-c1ccc(F)cc1F,-2,-1
COc1ccc(-n2nnc3c(SCc4cccc([N+](=O)[O-])c4)ncnc32)cc1,21,17
O=c1cc(-c2ccc(F)cc2)ncn1Cc1ccccc1F,-18,-23
O=C(NCCCN1CCOCC1)c1cc2n(n1)CCN(Cc1c(F)cccc1Cl)C2=O,-3,-3
Cc1oc(-c2ccc(F)cc2)cc1-c1nn2c(-c3ccccc3)nnc2s1,-5,-10
CCc1c(C(=O)O)c(C2CC2)nn1-c1cccc(F)c1,11,15
CN(CCn1cnc(-c2ccccc2)c1-c1ccccn1)S(C)(=O)=O,6,1
CNc1nc2cnc(Nc3ccc(N4CCN(C)CC4)cc3)cc2n1CC1CC1,10,0
COc1ccc(C(=O)N(Cc2cc(NC(=O)c3ccccc3Cl)ccc2N(C)C)CC2CCCO2)cc1 (stereo not drawn),-4,-4
Cc1ccc2c(c1)CCCN2C(=O)CCn1[nH]c(=O)c2ccccc2c1=O,1,0
CC(=O)c1sc(NC(=O)C2CCCC2)nc1C,2,0
Cc1nn(C)c(Cl)c1/C=C/C(=O)OC(C)C(=O)NC(C)(C)C (stereo not drawn),2,11
CCOC(=O)c1cnc(-c2ccccc2)nc1NC(C)CCCN(CC)CC (stereo not drawn),16,14
Cc1nnc(SCCCNC2CCC3(CCNCC3)CC2)s1,13,3
CN(Cc1ccc(-n2cccn2)cc1)Cc1cn[nH]c1-c1cc2ccccc2o1,5,2
CS(=O)(=O)Nc1ccc(CN2CCCc3sccc3C2)cc1,5&-3,4&-5
CC(=O)Nc1ccc(OCc2cccc(F)c2)c(Cl)c1,0,-3
CS(=O)Cc1cccc(C(=O)Nc2ccc(Oc3ncccn3)cc2)c1 (stereo not drawn),3,10

# Grouped by structure, the compounds so far containing a Cl atom
SMILES,NPYLR7 ag,NPYLR7 ag max-min
O=C1CCC(C(=O)OCC(=O)Nc2ncc(C(F)(F)F)cc2Cl)CN1 (stereo not drawn),-1,20
COC(=O)c1sc(NCCc2ccccc2C)nc1Cl,6,4
CCN(CC)CC1CCN(c2ncc3ncnc(Nc4ccc(F)c(Cl)c4)c3n2)CC1,-9,-16
CC(C)c1cc(C2CCCN2C(=O)Cn2cc(Cl)cn2)on1 (stereo not drawn),-1,59
Cc1ccc(Cl)c(Oc2cc(N3CCN(C(=O)c4cccs4)C(C)C3)ncn2)c1 (stereo not drawn),17,18
O=S(=O)(c1cccc(Cl)c1Cl)N1CCN(c2nc3ccccc3nc2-c2ccccc2)CC1,12,9
CC(SCc1ccc(Cl)s1)C(=O)NC1CCCC1 (stereo not drawn),-6,-7
CCOC(=O)c1c(NC(=O)CCl)sc(Br)c1-c1ccccc1,-4,-10
CCC(NC(=O)N1CCCC(c2nc(C)no2)C1)c1cccc(Cl)c1 (stereo not drawn),-1,1
Cc1ccc(Cl)cc1N1CCN(C(=O)c2sc(Nc3ccc(F)cn3)nc2C)CC1,15,4
Cc1cc(Oc2cc(N3CCN(C(=O)c4ccccc4C)CC3)ncn2)ccc1Cl,4,6
O=C(Nc1ccc(N2CCN(C(=O)c3c(F)cccc3Cl)CC2)nc1)c1ccc(F)cc1,25,15
CCCNC(=O)c1cc(-c2ccc(Cl)cc2)n(-c2cccc(C)c2)c1C,33,32
O=C(NCCCN1CCOCC1)c1cc2n(n1)CCN(Cc1c(F)cccc1Cl)C2=O,-3,-3
COc1ccc(C(=O)N(Cc2cc(NC(=O)c3ccccc3Cl)ccc2N(C)C)CC2CCCO2)cc1 (stereo not drawn),-4,-4
Cc1nn(C)c(Cl)c1/C=C/C(=O)OC(C)C(=O)NC(C)(C)C (stereo not drawn),2,11
CC(=O)Nc1ccc(OCc2cccc(F)c2)c(Cl)c1,0,-3

# High-throughput results: PubChem BioAssay, Fisher Drug Discovery Resource Center
